GIV-Gai inh = inhibitors of GIV peptide binding to Galpha-i3, primary screen, biochemical, fluorescence polarization, FITC-GIV GBA peptide, rat Galphai3; Guanine nucleotide-binding protein G(i) subunit alpha-3 (Rattus norvegicus), P08753; 90 min; active compounds read low; scaled: aluminum fluoride 0%, vehicle 100%; percent of control (FP), % (test concentration not listed); actives 0.42% (n = 210,000); AID 1224905, 2016;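 active means replicate mean at 85% of control or lower, very high polarization wells dropped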;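 further: lower values mean more displacement of the GIV peptide from Galpha-i3; wells of about 15 µL received 100 nL stock; the first replicate is given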
Target sequence (P08753 whole entry, looked up): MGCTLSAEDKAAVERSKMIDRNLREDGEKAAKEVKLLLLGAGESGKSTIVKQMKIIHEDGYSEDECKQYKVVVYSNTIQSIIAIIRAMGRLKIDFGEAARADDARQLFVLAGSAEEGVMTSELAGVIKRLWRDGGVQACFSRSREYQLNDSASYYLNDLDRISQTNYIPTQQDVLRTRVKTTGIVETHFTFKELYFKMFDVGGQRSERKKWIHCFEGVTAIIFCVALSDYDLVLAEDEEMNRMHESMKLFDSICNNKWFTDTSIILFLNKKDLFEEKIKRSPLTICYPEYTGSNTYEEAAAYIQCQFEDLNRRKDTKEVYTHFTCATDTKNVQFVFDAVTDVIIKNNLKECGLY
Sa growth 42C = S. aureus growth inhibition at 42 and 30 °C, primary screen, LtaS inhibitor project, RN4220, two temperatures | OD600, 20 h, 42 °C; active compounds read low | relative growth, % (concentration not given with the values) | actives 0.53% (n = 170,000) | AID 720641, 2013;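 active means growth at 42 °C up to 50% and 20 or more points under that at 30 °C, or under 10% at both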;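 further: 300 nL library stock went into each well; scaled to the means of positive and negative controls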
HCMV NEC inh = inhibitors of HCMV UL50-UL53 interaction, biochemical, HTRF. normalized percent inhibition. inhibition, % (no concentration beside the values). actives 0.15% (n = 190,000);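 active means both replicates at 50% or more, plus weaker picks with an unusually low signal ratio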;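 further: stock transfer was 100 nL into about 20 µL; 0% = negative control wells and 100% = wells with untagged competitor protein; inactives centre near -12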
Sa growth 42C second temp = recorded beside Sa growth 42C, whose call it bears; relative growth, %; measured here: growth at 30 °C;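 optical density after 20 h as mean of two plates; 100% = untreated growth and lower means inhibition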
* marks the source's active call; other numbers are inactive results; / = not tested or not shown; & = joins results of further samples.

SMILES	GIV-Gai inh	Sa growth 42C	Sa growth 42C second temp	HCMV NEC inh
Cc1ccccc1CCNC(=O)c1ccc2c(c1)c(C)c(C)n2C	108	83	92	/
O=C(O)/C(=C\c1ccccc1)NC(=O)c1ccccc1	95	90	108	-3
CC1=C(C#N)C(c2cn[nH]c2-c2cccs2)C2=C(CCCC2=O)N1 (stereo not given)	104	113	93	-14
CC1CCN(S(=O)(=O)c2ccc3c(c2)oc(=O)n3C)CC1	103&98	98	93	-15&-21
Cc1ccc(SCCNC(=O)CN(c2cccc(C)c2C)S(C)(=O)=O)cc1	105	92	75	-30
Cc1c(CCNC(=O)Cc2ccc(F)cc2)sc2nc(-c3ccc(F)cc3)nn12	99&95	103	92	/
COC(=O)c1ccc(NC(=O)CSc2nnc(-c3ccccc3Cl)n2N)cc1	100	102	89	9
COc1ccc(S(=O)(=O)N(C)c2ccnc(C(=O)N3CCCCC3)c2)cc1	99	89	79	-30
COc1ccccc1OCCOc1c(Br)cc(C=C2C(=O)NC(=O)NC2=O)cc1OC	104	/	/	-1
CC(NC1CC1)C(=O)N1CCN(C(=O)c2ccco2)CC1 (stereo not given)	/	78	95	-26
O=C(NCCN1CCCCC1)c1ccc(-c2ccccc2)cc1	109	110	100	-1
COc1ccc(N2CCN(CC(O)COc3c(OC)cccc3OC)CC2)cc1 (stereo not given)	101	116	91	-13
CN(C)CCC(=O)N1c2ccccc2Sc2ccc(C(F)(F)F)cc21	96	93	84	/
O=C(CNc1cccc(C(F)(F)F)c1)N/N=C1\CC2CC=CC12 (stereo not given)	/	108	94	-36
COc1ccc(-c2cc(=O)n3[nH]cnc3n2)cc1	99	100	83	/
Cc1ccc(S(=O)(=O)N(C)CC(=O)OCc2nc3ccc(Cl)cc3n2CCO)cc1	/	102	95	-5
O=C(Nc1cccc(-c2cn3cccnc3n2)c1)c1ccccc1C(F)(F)F	109	79	89	/
Cc1cccc(OC(=O)c2snnc2C)c1	101	90	79	-32
O=C(CSc1c2c(nc3ccccc13)CCCC2)N1CCCCC1	106	87	84	-7
Nc1nc(-c2ccccc2)cs1	/	85	92	-10

No new results follow: entries from further up.
SMILES	GIV-Gai inh	Sa growth 42C	Sa growth 42C second temp	HCMV NEC inh
Cc1ccccc1CCNC(=O)c1ccc2c(c1)c(C)c(C)n2C	108	83	92	/
O=C(O)/C(=C\c1ccccc1)NC(=O)c1ccccc1	95	90	108	-3
CC1=C(C#N)C(c2cn[nH]c2-c2cccs2)C2=C(CCCC2=O)N1 (stereo not given)	104	113	93	-14
CC1CCN(S(=O)(=O)c2ccc3c(c2)oc(=O)n3C)CC1	103&98	98	93	-15&-21
Cc1ccc(SCCNC(=O)CN(c2cccc(C)c2C)S(C)(=O)=O)cc1	105	92	75	-30

Next section:
SMILES	GIV-Gai inh	Sa growth 42C	Sa growth 42C second temp	HCMV NEC inh
Cc1c(C(=O)Nc2ccccc2)oc2ccccc12	/	111	94	-10
OCc1ccc(-c2cccc(Cl)c2)o1	105	69	50	-33
COc1ccccc1CNC(=O)c1cc(S(=O)(=O)N2CCCC(C)C2)cn1C (stereo not given)	100	77	88	/
COc1cc(CNCCSc2nnnn2C)cc(Cl)c1OCc1ccc(Cl)cc1	101	/	/	-14
Cc1[nH]c2ccccc2c1SCC(=O)N1CCCCC1	109	97	78	-3
CS(=O)(=O)Nc1ccc(C2=NN(C(=O)CCC(=O)O)C(c3ccccc3F)C2)cc1 (stereo not given)	101	/	/	-83
CC1CC(C)CN(S(=O)(=O)c2ccc(NC(=O)c3ccc(C#N)cc3)cc2)C1 (stereo not given)	/	97	91	-12
CC(=O)c1ccc(N2CCN(C(=O)c3cc(S(=O)(=O)N4CCCCCC4)cn3C)CC2)cc1	100	86	90	/
COc1ccc(CNc2ncnc3c2c(-c2ccccc2)cn3-c2ccc(C)c(Cl)c2)cc1	101	114	94	/
CSc1ccc(/C=C2\SC(N)=NC2=O)cc1	/	81	88	-17
CCc1ccccc1NC(=O)c1cc(CC(C)C)on1	99	85	80	-5
O=C(NCc1ccc2c(c1)OCO2)c1ccc(NC(=O)C2CCCO2)cc1 (stereo not given)	106	90	88	2
CCC1CN(C(=O)C2CCN(S(=O)(=O)c3c(C)noc3/C=C/c3ccccc3F)CC2)c2cc(C)ccc2O1 (stereo not given)	111	114	100	/
Cc1ccccc1NC(=O)N1CCN(C)c2ncccc21	99	/	/	-24
CC(=O)Nc1nc(COC(=O)CNC(N)=O)cs1	/	120	86	-3
Cc1cc2ncn(C3CC(=O)N(c4ccccc4Cl)C3=O)c2cc1C (stereo not given)	98	79	88	5
O=c1[nH]nc(Cc2ccccc2)c2ccccc12	105	99	84	-9
Cc1c(C(=O)NCCCN2CCOCC2)oc2ccc3c(c12)C(=O)CC(C)(c1ccc(Cl)cc1)O3 (stereo not given)	106	130	78	/
Cc1ccccc1NC(=O)c1ccc(F)c(S(=O)(=O)NC2CCCC2)c1	102	96	81	/
CC(C)Cn1cc(NC(=O)N2CCCCCC2)c2ccccc2c1=O	100	98	90	-7

Fetched by compound from the list above:
SMILES	GIV-Gai inh	Sa growth 42C	Sa growth 42C second temp	HCMV NEC inh
CS(=O)(=O)Nc1ccc(C2=NN(C(=O)CCC(=O)O)C(c3ccccc3F)C2)cc1 (stereo not given)	101	/	/	-83
Cc1cc2ncn(C3CC(=O)N(c4ccccc4Cl)C3=O)c2cc1C (stereo not given)	98	79	88	5
COc1ccc(CNc2ncnc3c2c(-c2ccccc2)cn3-c2ccc(C)c(Cl)c2)cc1	101	114	94	/
CC(=O)Nc1nc(COC(=O)CNC(N)=O)cs1	/	120	86	-3
Cc1ccccc1NC(=O)N1CCN(C)c2ncccc21	99	/	/	-24
CC1CC(C)CN(S(=O)(=O)c2ccc(NC(=O)c3ccc(C#N)cc3)cc2)C1 (stereo not given)	/	97	91	-12
Cc1[nH]c2ccccc2c1SCC(=O)N1CCCCC1	109	97	78	-3

More records follow:
SMILES	GIV-Gai inh	Sa growth 42C	Sa growth 42C second temp	HCMV NEC inh
CCCCNC(=O)C1CC(=O)N(CCc2c[nH]c3ccc(Cl)cc23)C1 (stereo not given)	105	/	/	3
Cc1ccc(CNc2nc(C)nc3onc(C)c23)cc1	102	/	/	-24
COc1ccccc1-c1noc(CCC(=O)Nc2ccccc2C(F)(F)F)n1	105	91	81	-19
Cc1ccc2oc(=O)c3cc(C(=O)N(C)c4ccccc4)sc3c2c1	97	97	87	-1
CCCCn1c(/N=C/c2c[nH]c3ccccc23)nc2ccccc21	/	107	86	-34
CCCN(CCC)C(=O)c1ccc(Cl)c(Cl)c1	101	82	80	-20
Cc1nc2nc(Cc3cccc(F)c3)nn2c(N2CCN(Cc3ccc4c(c3)OCO4)CC2)c1C	102	/	/	-5
CN(NC1OC(=O)c2ccccc21)c1ncc(C(F)(F)F)cc1Cl (stereo not given)	107	106	110	6
CCCc1ccc(OC(=O)c2ccc(O)cc2Cl)cc1	109	70	58	/
Cc1ccc(C)c(N2CCN(c3ncnc4onc(C)c34)CC2)c1	102	103	98	/
CCc1ccc2c(c1)c(=O)c(C(=O)c1ccc(C)cc1)cn2CC(=O)Nc1ccc2c(c1)OCCO2	109	103	85	-12
N#CCCn1cc(F)c(N)nc1=O	/	73	81	-16
CCN1C(=O)C(=Cc2ccc(N3CCCC3)cc2)C(=O)N(CC)C1=S	117	85	86	-14
COc1ccc(C2CC(=O)C3=C(C2)Nc2ccccc2N(C(=O)C(F)(F)F)C3c2cccs2)cc1 (stereo not given)	101	/	/	-14
COc1ccc(Cl)cc1C(=O)NCCc1ccc(S(=O)(=O)NC(=O)NC2CCCCC2)cc1	99&91&96	94&104	91&100	-42&11&-13&-2&-14&-10&6&-20&-16
O=C(NCc1ccccc1)C(Cc1ccccc1)NS(=O)(=O)c1ccc(Br)cc1 (stereo not given)	103	95	74	/
CCOC(=O)c1nc2cc(C)c(C)cc2nc1NC(C)c1ccccc1 (stereo not given)	168	/	/	-1
O=C(CCc1c[nH]c2ccccc12)OCC(=O)c1cccc(Br)c1	/	79	86	-18
Cc1ccc(S(=O)(=O)N2CCCC2C(=O)n2nc(C)cc2C)cc1 (stereo not given)	102	91	84	-25
O=C(O)c1cccnc1SCc1cccc(Cl)c1	99	129	83	/
CCOCCOC(=O)c1ccc2c(c1)N(Cc1ccccc1C#N)C(=O)c1ccccc1S2(=O)=O	99	107	94	/
COc1ccccc1NC(=O)CC1S/C(=N\N=C(/C)c2ccccc2)NC1=O (stereo not given)	101	99	117	9
COc1ccc(N(CC(=O)N2CCN(c3cc(C)ccc3C)CC2)S(=O)(=O)c2c(C)noc2C)cc1	108	83	93	-31
COCCN(Cc1cc2ccc(C)cc2[nH]c1=O)C(=O)c1ccccc1	97	100	74	-2
C=Cc1ccc(COC(=O)c2nnn(-c3ccc(Br)cc3)c2C)cc1	98	/	/	-2
NC(N)=NS(=O)(=O)c1ccc(N/C=C2/CCc3ccccc3C2=O)cc1	111	111	79	-52
O=C1c2ccccc2C(=O)N1CC(O)COC1CCCCC1 (stereo not given)	104	121	84	-67
CCc1cc2c(cc3n2CC(C)(C(=O)NC2CCCCC2)N(CC2CCCO2)C3=O)s1 (stereo not given)	108	/	/	-2
COc1ccccc1NC(=O)Cn1c(=O)n(Cc2nc(-c3ccccc3)no2)c(=O)c2ccccc21	104	95	87	/
CSc1nc2c(cc1C#N)CCC2	101	101	117	-3
Cn1c(-c2cc(Br)cs2)nc(=O)c2ccccc21	102	99	89	/
O=C(CCCCn1c(=O)[nH]c2ccsc2c1=O)NCc1ccccc1	101	93	87	/
Cc1nn(C(C)C(=O)NCc2ccccc2Cl)c(=O)c2c1sc1ccccc12 (stereo not given)	113	/	/	0
CCC(Sc1nc2ccccc2c(=O)n1Cc1ccccc1OC)C(=O)NCc1cccnc1 (stereo not given)	98	103	89	6
O=C(Nc1ccc2c(c1)OCO2)N1CCC(n2c(C(F)(F)F)nc3cccnc32)CC1	97	/	/	-16
COc1ccc(-c2cc(=O)[nH]c(SCc3nc(-c4ccccc4)oc3C)n2)cc1	102	/	/	-9
CCCNC(=O)N1CCN(S(=O)(=O)c2ccc3c(ccn3C)c2)CC1	99	90	90	/
Cc1cccc(C)c1NS(=O)(=O)c1ccc(NS(=O)(=O)c2ccc3c(c2)OCCO3)cc1	105	99	86	10
CCn1cc(C(=O)N2CCN(c3cccc(C)c3C)CC2)c2cc(OC)c(OC)cc2c1=O	108	91	103	24
Cc1cc(Nc2ccc(S(=O)(=O)N3CCOCC3)cc2)c2ccc(C(F)(F)F)cc2n1	110	108	97	1
COc1cc(C2C3=C(CC(C)(C)CC3=O)Nc3ccccc3N2C(=O)Cc2ccccc2)cc(OC)c1OC (stereo not given)	107	/	/	-13
CCOc1ccccc1CNC(=O)CCc1c(C)nn(-c2ccc(N3CCCC3)nn2)c1C	97	84	89	/
Cc1ccc(NC(c2ccccn2)c2ccc3cccnc3c2O)c(C)c1 (stereo not given)	98	/	/	-48
CCCCN(CC)CCNC(=O)c1nn(-c2ccc(OC)cc2)c(=O)c2c1c1ccccc1n2C	106	100	87	-30
N#C/C(=C1\CCCN1)c1ccccn1	/	113	92	-12
CC(NC(=O)c1ccccc1NC(=O)c1ccccc1)C(=O)N1CCN(C)CC1 (stereo not given)	109	/	/	6
O=C(CC1CCCC1)Nc1cccc(Br)c1	/	83	69	-40
NS(=O)(=O)c1ccccc1NC(=S)Nc1ccccc1S(N)(=O)=O	104	102	92	-29
Cc1ccc(CCNC(=O)C(NS(=O)(=O)c2ccc3c(c2)oc(=O)n3C)C(C)C)cc1 (stereo not given)	99	103	91	-36
O=C(c1ccco1)N1N=C(c2c(-c3ccccc3)c3cc(Cl)ccc3[nH]c2=O)CC1c1ccco1 (stereo not given)	106	123	94	2
Cc1nnc(Nc2ccc(Br)cc2)[nH]c1=O	100	/	/	-29
COc1ccc2cc(C(=O)NCC(=O)O)sc(=O)c2c1OC	102	100	94	-78
Cc1c(C(=O)N(Cc2cccc(Cl)c2)Cc2ccco2)oc2ccccc12	103	86	77	-2
CC(C)(O)CNS(=O)(=O)c1ccccc1	/	90	89	-33
O=C(COc1ccccc1F)Nc1nnc(S(=O)(=O)N2CCCCCC2)s1	99	115	62	2
CN(C(=O)c1ccco1)C1CC(C)(C)N(C)C(C)(C)C1	101	97	86	-24
CCNC(=O)CNCc1c(C)nn(CC(C)C)c1Cl	/	87	96	6
CCc1ccc(OCC(=O)Nc2cc(-c3nc4cc(C)ccc4o3)ccc2C)cc1	105	97	83	-19
CCc1nn(CC(=O)NCc2ccccc2)c(=O)c2cccn12	100	73	87	2
Cc1ccc2nc(Cl)c3cc(C(=O)N4CCCC(C)C4)sc3c2c1 (stereo not given)	111	109	80	-4
O=C(CN1CCCC1)N/N=C/c1c(O)ccc2ccccc12	127	118	52	-74
CCn1c(-c2ccccc2)c(C(=O)CC#N)c2ccccc21	/	111	99	14
Cc1ccc(C)c(CN2CCC(CNC(=O)Nc3ccc(Br)cc3)CC2)c1	105	/	/	-14

4 compounds already listed, sorted by their value in Sa growth 42C second temp, rising:
mol	GIV-Gai inh	Sa growth 42C second temp
O=C(CC1CCCC1)Nc1cccc(Br)c1	/	69
CCc1nn(CC(=O)NCc2ccccc2)c(=O)c2cccn12	100	87
Cc1ccc(CCNC(=O)C(NS(=O)(=O)c2ccc3c(c2)oc(=O)n3C)C(C)C)cc1 (stereo not given)	99	91
CCNC(=O)CNCc1c(C)nn(CC(C)C)c1Cl	/	96

From PubChem
